Marburg entry inh: inhibitors of Marburg virus binding or cell entry | Marburg virus pseudotyped entry inhibition, cell reporter; control for the full effect not named in the record; about a third of the inactives were read at about 46 µM | Potency, µM (titrated, usually from 37.8 µM), for the others: at the top dose activity change, negative = inhibition, actives largely listed as inhibitors | 300,000 tested, 1.8% active; active = well fitted inhibition curve with a large enough effect; inconclusive = small, poorly fitted or top-dose-only effect, or effect the other way; inactive = flat fitted curve, though single readings scatter; tested in HEK293 cells; about a fifth of its hits are not listed in these tables; note: % is set by controls: 0 for no effect and ±100 for the full control effect; luciferase read-out
Cruzain Triton: cruzain (T. cruzi) inhibition with detergent. AID 1478. 200,000 tested, 0.43% active. purified cruzain, Z-FR-AMC fluorescence, 0.01% Triton. Potency, µM, for the others: max response, negative = inhibition, hits mostly inhibitors. P25779; active = well fitted curve in the direction sought with a large enough effect; inconclusive = small, poorly fitted or top-dose-only effect, or another doubt; inactive = no such curve, though single readings can be large; an effect the other way counts as inactive or inconclusive;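 note: plate controls were neutral wells for no effect and buffer without enzyme for full effect; nearly all actives have a fitted effect of over 40% in size; top concentration of the series not given in the record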
Target sequence (P25779 123-467 limits assumed): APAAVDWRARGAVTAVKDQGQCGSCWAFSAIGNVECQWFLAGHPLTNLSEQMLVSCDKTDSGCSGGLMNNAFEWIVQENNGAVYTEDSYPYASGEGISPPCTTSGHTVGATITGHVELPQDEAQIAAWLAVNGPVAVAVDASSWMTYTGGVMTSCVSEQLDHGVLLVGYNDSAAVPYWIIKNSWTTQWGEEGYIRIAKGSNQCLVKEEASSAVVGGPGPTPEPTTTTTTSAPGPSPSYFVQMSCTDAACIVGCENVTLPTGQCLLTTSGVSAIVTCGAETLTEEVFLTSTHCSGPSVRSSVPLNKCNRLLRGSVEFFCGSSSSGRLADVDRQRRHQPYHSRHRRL
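Sodium acetate buffer (100 mM, pH 5.5) containing 5 mM DTT and 0.01% Triton X-100 hosted 1.5 nM cruzain and test compound for 15 min at room temperature. Cleavage of 2 uM Z-FR-AMC was then tracked by fluorescence.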
SARS PLpro yeast: blocks SARS-CoV papain-like protease in a yeast assay; S. cerevisiae expressing SARS-CoV PLpro, growth rescue; control for the full effect not named in the record; Potency, µM (series often up to 32.9 µM), for inactives: at the highest dose activity, positive = growth rescue; 330,000 tested, 0.19% active; AID 485353; note: 0% is about no effect; nearly all actives have a fitted effect of over 55% in size; growth read by luminescence after 48 h
RE007 growth inh: less growth of the S. pombe RE007 Vpr strain; S. pombe RE007 Vpr strain, BacTiter-Glo ATP luminescence, 24 h; control for the full effect not named in the record; Potency, µM (doses to about 92.2 µM), for the others: at the top dose activity change, negative = less growth; 360,000 tested, 0.21% active; active = well fitted falling curve with a large enough effect; inconclusive = small, poorly fitted or top-dose-only effect; inactive = no such curve, though single readings can be large or run the other way;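 note: % is set by controls: 0 for no effect and ±100 for the full control effect; nearly all actives have a fitted effect of over 50% in size; the assay follows cell death caused by Vpr and the record does not say whether a fall means rescue or toxicity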
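Fission yeast strain RE007, carrying one chromosomally integrated HIV-1 vpr copy, was seeded at OD 0.01 in PMG+AL medium with 23 nL pinned compound. After 24 h at 30 °C and 99% humidity, viability was read by BacTiter-Glo luminescence.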
LASV entry inh: inhibitors of Lassa virus binding or cell entry; Lassa virus pseudotype entry inhibition, cell reporter; control for the full effect not named in the record; Potency, µM (titrated, usually from 37.9 µM), for the others: at the highest dose activity change, negative = inhibition, most hits filed as inhibitors; 300,000 tested, 1.2% active; AID 540256; active means well fitted inhibition curve with a large enough effect; inconclusive means small, poorly fitted or top-dose-only effect, or effect the other way; inactive means flat fitted curve, though single readings scatter; tested in HEK293 cells; note: % is set by controls: 0 for no effect and ±100 for the full control effect; nearly all actives have a fitted effect of over 50% in size; luciferase read-out
NS1 function inh: inhibitors of influenza NS1 protein function; S. cerevisiae slowed by influenza A NS1, growth recovery by OD600; Potency, µM (titrated, usually from 46.1 µM), for the others: at the top dose activity, positive = more growth; 270,000 tested, 0.4% active; note: actives are rising curves; nearly all actives have a fitted effect of over 50% in size
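Read-out: OD600 growth recovery of NS1-expressing budding yeast. Cells grown overnight at 30C in -URA glucose medium, washed, resuspended and diluted 1:100 in 2% galactose assay medium, pH 6.0. Same strain lacking NS1 served as positive control.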
2A StopGo: FMDV 2A StopGo reporter, luciferase signal | human cells with a luciferase reporter of 2A StopGo recoding; control for the full effect not named in the record | Potency, µM (highest dose often 57.9 µM), for inactives: at the highest dose signal change, negative = less light | 410,000 tested, 1.2% active; active = well fitted falling curve with a large enough effect; inconclusive = small, poorly fitted or top-dose-only effect; inactive = no such curve, though single readings can be large or run the other way; tested in HEK293T cells; note: % is set by controls: 0 for no effect and ±100 for the full control effect; nearly all actives have a fitted effect of over 45% in size; luciferase light after 4 h
Cruzain noTriton: inhibitors of Trypanosoma cruzi cruzain without detergent; P25779; purified cruzain, Z-FR-AMC fluorescence, no detergent; Potency, µM, without a hit: max response, negative = inhibition, usual class: inhibitors; 200,000 tested, 2.3% active; AID 1476; active = well fitted curve in the direction sought with a large enough effect; inconclusive = small, poorly fitted or top-dose-only effect, or another doubt; inactive = no such curve, though single readings can be large; an effect the other way counts as inactive or inconclusive;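 note: plate controls were enzyme without inhibitor for no effect and buffer without enzyme for full effect; nearly all actives have a fitted effect of over 40% in size; top concentration of the series not given in the record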
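Detergent-free condition (0.00005% Triton X-100) in acetate buffer pH 5.5 with DTT. 1.5 nM enzyme and compound were pre-mixed 15 min, then 2 uM Z-FR-AMC substrate added; reaction progress from fluorescence change between first and third reads (60 s).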
An asterisk follows results filed as active; ? = inconclusive; · = not tested or not shown; [ ] = another dose, or the depositor's remark. Unless noted, calls come from the whole dose curve; as a rule, active means well fitted rising curve with a large enough effect; inconclusive means small, poorly fitted or top-dose-only effect; inactive means no such curve, though single readings can be large or run the other way. Potency is the fitted concentration of half-maximal effect. Compounds were not picked by outcome; overall some 4.7% were active at least once.

SMILES	Marburg entry inh	Cruzain Triton	SARS PLpro yeast	RE007 growth inh	LASV entry inh	NS1 function inh	2A StopGo	Cruzain noTriton
COc1ccccc1CN1CCCC(C(=O)c2ccccc2OC)C1 (stereo unspecified)	?	·	6%	-18%	?	-1%	-13%	·
CCOC(=O)/C(C#N)=C/C1=C(N2CCOCC2)CC(C)(C)OC1	1%[46.1 µM]	·	4%	8%	-3%	3%	-5%	·
CCCCOc1ccc(/C=N/NC(=S)Nc2cc(C)ccc2C)cc1	-3%	-2.3%	8%	14%[3.69 µM]	-20%	16%	-3%	-13%
Cc1cccc(OCC(=O)N2CCN(CCc3ccccn3)CC2)c1	9%[46.1 µM]	-0.7%	·	·	4%[46.1 µM]	·	-4%	-9%
CC(C)C(=O)Nc1ccc(Cc2ccc(NC(=O)C(C)C)c(O)c2)cc1O	3%	4.5%	8%	-6%	-2%	-1%	-8%	-4%
O=C(NNC(=S)NC(=O)c1ccc(F)cc1)c1cccnc1	0%[46.1 µM]	·	-2%	-2%	0%[46.1 µM]	-31%	-1%	·
CC(=O)c1c(C)[nH]c(C(=O)NCCc2ccccc2)c1C	?	-2.9%	8%	1%	?	-6%	?	-2%
COCc1cc(=O)[nH]c(N2CCN(Cc3ccc4c(c3)OCO4)CC2)n1	·	·	1%	-14%	·	5%	-9%	·
CCCCN(CCCC)C(=S)NC(=O)C(C)(C)C	7%	-0.7%	10%	4%	?	-15%	0%	-6%
O=C(CSc1ccccc1F)OCC(=O)N1CCN(C(=O)c2ccco2)CC1	?	·	-3%	36%	?	·	-20%	·
COc1cc(NC(=O)C(Cc2ccccc2)n2cccc2)cc(OC)c1 (stereo unspecified)	-22%	·	-6%	1%	?	-9%	-20%	·
C/C(=N\NC(=S)Nc1ccccc1C)c1cc2ccccc2o1	?	·	0%	-14%	?	6%	-18%	·
O=C1c2oc3ccc(Br)cc3c(=O)c2C(c2cccnc2)N1Cc1ccco1 (stereo unspecified)	·	1.0%	1%	·	·	1%	·	10%
Cn1c(SCc2ccccn2)nc2c1c(=O)[nH]c(=O)n2C	·	·	1%	8%	·	-5%	1%	·
CCCCCCCC1(C)NC(=O)N(c2ccccc2)N1 (stereo unspecified)	-14%	-12%	0%	14%	-20%	-153%	·	7%
CCC1C(=O)Nc2ccccc2N1C(=O)COc1ccccc1 (stereo unspecified)	-16%[46.1 µM]	·	-1%	1%	-9%[46.1 µM]	4%	5%	·
CCC1CN(C(=O)N2CCC(C(=O)NCCc3ccc(OC)c(OC)c3)CC2)c2ccccc2O1 (stereo unspecified)	·	-2.6%	1%	-13%	11%[46.1 µM]	-5%	?	-6%
CCc1nnc2c(Nc3ccccc3Br)nc3ccccc3n12	?	-0.9%	·	·	5%[46.1 µM]	·	-13%	0%
O=C(O)c1nn(CCOc2cccc(Br)c2)c(=O)c2ccccc12	-12%[46.1 µM]	·	-6%	24%	13%	3%	-26%	·
CCC1=C(OC(=O)N(CC)CC)N2C(=O)OC(=NCCc3c[nH]c4ccccc34)[C@]2(Cc2ccccc2)[C@H]2C1=CC[C@H]1C(=O)N(C)C(=O)[C@H]12	·	-6.9%	3%	-12%	·	-17%	-14%	?
CCOC(=O)CC(SP1(=S)OCC2(CCCCC2)CO1)C(=O)OCC (stereo unspecified)	0%	·	·	52%	-24%	·	6%	·
CC(C)c1ccc(NC(=O)C2CCCN(S(=O)(=O)c3ccc4c(c3)C(C)(C)C(=O)N4C)C2)cc1 (stereo unspecified)	·	·	1%	1%	·	?	?	·
O=C(c1cc2ccccc2[nH]1)N(Cc1cccnc1)CC1CCCN(C2CCCCC2)C1 (stereo unspecified)	·	·	-3%	-1%	·	-2%	55%[activator]	·
Cn1c(O)c(N=Nc2ccc(S(=O)(=O)N3CCOCC3)cc2)c(=O)n(C)c1=O	2%	-9.2%	24%	-6%	·	17%	7%	4%
O=C(c1ccc(N2CCCCC2)c([N+](=O)[O-])c1)N(Cc1ccccc1)c1ccccn1	?	-2.4%	-6%	1%	?	11%	40%[activator]	1%
COc1ccc(C(=O)Nc2cccc(-c3ccc(N4CCOCC4)nn3)c2)cc1	3%	·	1%	5%	-17%	·	2%	·
Cc1cc(C(=O)Nn2cnnc2)cs1	11%	3.3%	·	-4%	-13%	1%	-5%	9%
CCn1c(SCC(N)=O)nnc1-c1ccco1	1%	1.8%	0%	-6%	15%	-4%	13%	1%
COC(=O)c1cccc(N2C(=O)C(Cl)=C(N3CCOCC3)C2=O)c1	-21%	-22%	-7%	-5%	14%	-6%	1%	-30%
C=CCn1c(SCc2ccc3c(c2)OCO3)nc2scc(-c3ccco3)c2c1=O	6%	-6.3%	-12%	24%	5%	21%	?	-24%
CCOC(=O)c1ccc(NC(=O)CC2C(=O)N(c3ccc(F)cc3)C(=O)N2CCC(C)C)cc1 (stereo unspecified)	26µM*	-7.3%	-21%	0%	?	3%	?	1%
COc1ccc(S(=O)(=O)N2CCC(C)CC2)cc1N(C)S(=O)(=O)c1ccccc1	-20%	·	-1%	-7%	-23%	5%	17%	·
CCOC(=O)c1sc2nc(C3CC3)cc(-c3ccc(OC)cc3)c2c1N	2%	-0.8%	4%	-2%	6%	-1%	-19%	4%
CCCC(=O)OC(C(=O)Nc1cc(C(F)(F)F)ccc1Cl)c1ccccc1 (stereo unspecified)	?	-5.4%	-24%	3%	?	1%	-8%	19%
CC(=O)C1=C(O)C(=O)N(Cc2cccnc2)C1c1ccc(C)cc1 (stereo unspecified)	·	-5.2%	-6%	·	·	-2%	·	-17%
O=C(CSc1ccccc1C(=O)NCc1ccccc1)NC12CC3CC(CC(C3)C1)C2	?	-7.8%	-13%	2%	10µM*	-46%	?	8%
Clc1cc(Sc2ccc(Br)cc2)nnc1-c1ccccc1	-23%[46.1 µM]	2.4%	-19%	3%	-27%	-59%	?	?
Cc1ccc(CNC(=O)CN(C(=O)N2CCN(C)CC2)S(=O)(=O)c2ccc(C)cc2)cc1	7%	·	5%	-23%	-14%	·	-14%	·
O=C(NC1CC(=O)N(c2cccc(F)c2)C1)c1ccc2c(c1)OCO2 (stereo unspecified)	·	-0.6%	·	·	11%[46.1 µM]	·	-11%	-16%
Nc1nc(SCC(=O)c2cc(F)ccc2F)n[nH]1	2%[46.1 µM]	·	-4%	1%	13%[46.1 µM]	18%	-13%	·
O=C(c1ccc(-n2cncn2)c([N+](=O)[O-])c1)N1CCN(S(=O)(=O)c2ccc(Cl)cc2)CC1	-3%	·	-5%	-27%	0%	-1%	-31%	·
O=P(OC1CCCCC1)(OC1CCCCC1)C(O)c1ccccc1 (stereo unspecified)	-17%	2.1%	5%	2%	14%	5%	28%	1%
Cc1ccc(NC(=O)/C(C#N)=C/c2cn(CC(=O)NCc3ccco3)c3ccccc23)cc1C	1%	·	0%	-11%	-2%	5%	11%	·
O=C(CSc1nnc2c(Cl)cc(Cl)cn12)N1CCOCC1	7%	-2.7%	-3%	-9%	-29%	4%	?	9%
Cc1cccc(NC(=O)CSc2nc(=O)n(Cc3ccco3)c3c2CCC3)c1C	·	-3.0%	·	·	-22%[46.1 µM]	·	33%[activator]	-15%
CN(Nc1cccc(Cl)c1)c1cccc(Cl)c1	?	·	·	?	?	·	-12%	·
CCOC(=O)CCNC(=O)N1CCCC(Cc2ccccc2)(C(=O)OCC)C1 (stereo unspecified)	·	·	-1%	3%	·	18%	-15%	·
COc1cc(/C=N/Nc2ccccn2)cc(OC)c1O	·	·	-1%	-4%	7.9µM*	·	23%	·
CCC(=O)Nc1ccc(S(=O)(=O)N2CCc3ccccc32)cc1	·	·	-7%	2%	·	-1%	?	·
COc1ccc(Cc2nc3ccc(C(=O)NCCc4ccc(OC)c(OC)c4)cc3o2)cc1	·	-3.5%	·	·	?	·	0%	22%
CC(NC(=O)CCNC(=O)c1ccc(Br)cc1)c1ccc(-n2ccnc2)cc1 (stereo unspecified)	-14%	·	-1%	-5%	-3%	·	-16%	·
c1ccc(-n2c(SCc3nc(-c4cccs4)no3)nnc2-c2ccco2)cc1	-28%	-8.6%	-13%	7%	-25%	-58%	·	-20%
Cc1nc2nc(NC(=O)C(C)C)[nH]n2c(=O)c1Cc1ccccc1	10%[46.1 µM]	3.7%	·	·	?	·	1%	22%
S=C(NC1CCCCC1)NN(c1ccccc1)c1ccccc1	11%	-7.6%	-31%	-2%	8%	-9%	-12%	-23%
O=C(O)c1ccc(N=Nc2c(O)[nH]c3cc(Cl)ccc23)cc1	0%	·	-1%	12%	·	1%	15%	·
N/C(=N\OC(=O)C1CCCCC1)c1cccc(Br)c1	?	·	3%	4%	-7%[46.1 µM]	-3%	39%[activator]	·
COc1ccc(S(=O)(=O)Nc2cc(C)nn2-c2ccccc2)cc1	?	2.5%	8%	23%	17%	17%	-12%	4%
Cc1cc(N(CCCl)CCCl)ccc1/C=N/NC(=O)c1ccco1	?	-9.1%	-2%	-12%	?	-35%	21%	-9%
CCOc1ccc(CC(=NCCO)C2=C(O)CC(C)(C)CC2=O)cc1OCC	?	-1.4%	22%	4%	17%	-18%	-8%	0%
CCOc1ncccc1C(=O)NCc1ccc(OC)c(OC)c1	-19%	-0.7%	-7%	3%	3%	-5%	-21%	0%
N#Cc1c(-c2ccccc2)cc(-c2ccccc2)nc1Br	?	-6.9%	17%	5%	?	9%	-20%	?
CN(/N=C/c1cccc(Br)c1)C1=NS(=O)(=O)c2ccccc21	-21%[46.1 µM]	·	0%	1%	-16%[46.1 µM]	2%	-17%	·
COc1cccc(Nc2ccccc2C(=O)O)c1	0%[46.1 µM]	·	0%	1%	?	-43%	59%[activator]	·
